# Source: PubChem
# Insulin prom inh: TRM-6 insulin promoter activity inhibition. TRM-6 cells (human fetal islet line), insulin promoter-eGFP reporter, imaging; reporter expression induced with tamoxifen. inhibition, % at 2 µM. hit rate 0.9% among 130,000. AID 1273;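 active means inhibition above the mean plus 3 SD, with well images judged a real hit on visual review, cut at about 60% in these data, passing the limit was not always enough; inconclusive means inhibition over the cutoff but images rejected on review; inactive means inhibition not above the cutoff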
# RGS16-Gao HTS: modulates binding between human RGS16 and Galphao. hit rate 0.38% among 220,000. bead-based flow cytometry RGS16-Galphao binding, fluorescence; actives lie on both sides. AID 1441. binding response (% of control), % at 10 µM. O15492+P09471;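 active means below 25% or above 175%, edge rows of some plates excepted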;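 further: Galphao activated by GDP with aluminum fluoride before binding; 100% = wells without compound and 0% = beads without RGS; some results beyond the cut were filed as inactive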
# Target sequence (O15492 whole entry, looked up): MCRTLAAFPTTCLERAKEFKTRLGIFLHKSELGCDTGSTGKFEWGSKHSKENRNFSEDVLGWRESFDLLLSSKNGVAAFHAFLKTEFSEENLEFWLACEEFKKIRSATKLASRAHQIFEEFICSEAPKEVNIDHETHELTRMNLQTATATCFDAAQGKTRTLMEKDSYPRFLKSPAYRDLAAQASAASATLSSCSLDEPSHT
# Target sequence (P09471 whole entry, looked up): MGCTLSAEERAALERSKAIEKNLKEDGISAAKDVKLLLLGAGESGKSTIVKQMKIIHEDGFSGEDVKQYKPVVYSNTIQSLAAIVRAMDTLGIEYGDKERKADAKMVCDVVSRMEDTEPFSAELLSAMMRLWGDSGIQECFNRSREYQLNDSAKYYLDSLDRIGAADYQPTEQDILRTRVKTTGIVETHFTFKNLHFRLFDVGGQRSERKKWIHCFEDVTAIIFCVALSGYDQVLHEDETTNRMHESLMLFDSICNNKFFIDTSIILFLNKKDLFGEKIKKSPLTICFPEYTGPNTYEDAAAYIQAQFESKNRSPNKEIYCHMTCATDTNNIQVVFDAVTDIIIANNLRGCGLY
# HSV replic up: increases HSV replication in cells; HSV replication augmentation in cells, fold increase; hit rate 0.005% among 220,000; maximum fold increase; AID 1956;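 active means peak rise of 1.5-fold or more in the series; inconclusive means self-fluorescent or not available for retest; tested in PC3 cells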;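 further: first round at 10 µM; read as green reporter fluorescence; hits show the peak of a series up to 25 µM; 1 = signal of infected wells without compound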
# PKD1 kinase inh: blocks activity of human protein kinase D1; Q15139; PKD1 kinase fluorescence polarization assay; inhibition, %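 (about 10 µM by stock and volumes)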; hit rate 0.056% among 200,000;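 active means inhibition of 50% or more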;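 further: controls were vehicle for no effect and a reference inhibitor for full effect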
# GALR2 agonist: agonists of human galanin receptor 2 (GALR2) | O43603 | activation, %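 (tested at 5 µM)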 | GALR2-expressing cells, agonist activation read-out | hit rate 0.48% among 140,000;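 active means above mean plus 3 SD of all compounds, about 5% in these data, not always enough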;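 further: 0% = vehicle buffer wells and 100% = reference agonist at full effect; tested in CHO reporter cells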
# Target sequence (O43603 whole entry, looked up): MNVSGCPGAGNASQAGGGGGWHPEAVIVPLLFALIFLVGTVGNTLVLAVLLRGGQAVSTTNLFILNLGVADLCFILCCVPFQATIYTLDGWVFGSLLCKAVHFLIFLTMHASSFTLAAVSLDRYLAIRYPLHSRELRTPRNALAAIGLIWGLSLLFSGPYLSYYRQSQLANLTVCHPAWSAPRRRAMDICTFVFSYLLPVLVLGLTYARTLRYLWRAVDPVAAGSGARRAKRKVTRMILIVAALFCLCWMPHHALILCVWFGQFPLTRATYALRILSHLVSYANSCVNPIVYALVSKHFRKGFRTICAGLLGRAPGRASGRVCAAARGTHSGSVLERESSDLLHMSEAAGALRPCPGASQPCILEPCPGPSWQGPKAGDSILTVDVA
# Insulin prom inh cell count: recorded beside Insulin prom inh, whose call it bears; normalized cell count, %; measured here: cell count, toxicity; reference of the scale not given here;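 cells exposed to compound for 48 h; stained nuclei by imaging scaled within each plate; lower means fewer cells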
# HSV replic up primary fold: further read-out of HSV replic up, marked with its call; fold increase; compound at 10 µM; measured here: primary screen fold increase 10 uM; tested in PC3 cells;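 GFP signal in the first replicate; 1 = infected wells without compound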
# Numbers without * were called inactive; i = inactive; ? = inconclusive; . = no result given.
No.	SMILES	Insulin prom inh	Insulin prom inh cell count	RGS16-Gao HTS	HSV replic up
1	O=C(CN(C(=O)CNC(=O)c1ccco1)c1ccc2c(c1)OCO2)NC1CCCCC1	-23	105	103	i
2	O=C(NCc1cccc(Cl)c1)NCc1cccc(Cl)c1	26	87	92	i
3	CC(C)(C)n1ncc(Oc2ccccc2[N+](=O)[O-])c(Cl)c1=O	6	98	106	i
4	CCN(CC)c1ncnc2sc3c(c12)CCC3	46	74	102	i
5	O=C(Oc1coc(CSc2nnc(NC(=O)C3CC3)s2)cc1=O)c1c(F)cccc1F	33	152	100	i
6	Nc1cccn2c(-c3ccc(Cl)c(Cl)c3)cnc12	.	.	91	?
7	COc1ccc(/C=C/C(=O)N2c3ccccc3Sc3ccc(C(F)(F)F)cc32)cc1	.	.	103	i
8	CC(C)(C)C(=O)/C(=C/c1ccncc1)n1cncn1	.	.	104	i

No.	HSV replic up primary fold	PKD1 kinase inh	GALR2 agonist
1	0.95	0	-3.8
2	1.1	-3	-0.3
3	1	-26	-1.0
4	0.83	-6	0.2
5	1.1	6	.
6	.	4	.
7	1.1	-3	-1.2
8	0.55	3	.

# The list goes on:
No.	SMILES	Insulin prom inh	Insulin prom inh cell count	RGS16-Gao HTS	HSV replic up
9	CC(NC(=O)CSc1nc2c(c(C(F)(F)F)n1)CCc1ccccc1-2)c1ccccc1 (stereo not given)	-321	49	90	i
10	O=C(Cc1cccs1)Nc1ccc(S(=O)(=O)Nc2ncccn2)cc1	57	113	99	i
11	COc1ccccc1NC(=O)CSC1=NCCN1	-38	124	108	i
12	COc1ccc(S(=O)(=O)Nc2ccc(S(=O)(=O)Nc3ccc(F)cc3)cc2)cc1C	8	117	14	i
13	COc1ccc(Cl)cc1C(=O)N/N=C/c1ccc(N2CCOCC2)cc1	-21	154	101	i
14	O=C(Cc1ccc(-n2c(=O)[nH]c3ccsc3c2=O)cc1)N1CCN(c2ccc(Cl)cc2)CC1	-12	103	95	i
15	O=C(Nc1nccs1)C(NS(=O)(=O)c1ccc(Br)s1)c1ccccc1 (stereo not given)	-4	97	99	i
16	C=CCn1c(Cc2cccs2)nnc1SCC(=O)Nc1ccc(OC)cc1	-14	94	103	i

No.	HSV replic up primary fold	PKD1 kinase inh	GALR2 agonist
9	0.99	-8	-1.8
10	0.97	-13	-1.2
11	0.96	-15	-1.7
12	0.91	-2	-1.2
13	1.1	-7	.
14	0.82	-4	1.3
15	1	-7	0.0
16	0.94	-6	-0.1

# Going on with the list.
No.	SMILES	Insulin prom inh	Insulin prom inh cell count	RGS16-Gao HTS	HSV replic up
17	CC(C)OC(=O)CNc1n[nH]c(=S)[nH]c1=O	58	101	108	i
18	CCOCC(=O)Nc1ccc(OCc2ccccc2)cc1	.	.	100	i
19	COc1cc2cc(CN(Cc3cccnc3)C(=O)Nc3ccccc3F)c(=O)[nH]c2cc1OC	.	.	102	i
20	Cc1cc(NS(=O)(=O)c2ccc(NC(=S)NC(=O)c3ccc(C(C)(C)C)cc3)cc2)no1	15	39	137	i
21	Cc1ccc(-c2csc(/C(C#N)=C/Nc3ccccc3SC(F)(F)F)n2)cc1	.	.	162	i
22	Cc1ccc(N2CC(C(=O)NCCCn3ccnc3)CC2=O)cc1 (stereo not given)	10	82	86	i
23	COc1ccc(S(=O)(=O)N2CCC(CN3C(=O)c4cccc5cccc(c45)C3=O)CC2)cc1	29	128	102	i
24	CCOc1ccc(S(=O)(=O)N(C)c2ccc(OCC(=O)NCCc3ccc(OC)cc3)cc2)cc1	.	.	102	i

No.	HSV replic up primary fold	PKD1 kinase inh	GALR2 agonist
17	0.91	0	.
18	0.97	-7	.
19	0.91	2	.
20	1.1	6	-0.9
21	0.95	-6	-1.6
22	1.2	1	-0.6
23	0.86	-4	2.4
24	0.92	.	.

# (cont.)
No.	SMILES	Insulin prom inh	Insulin prom inh cell count	RGS16-Gao HTS	HSV replic up
25	NC(=O)CSc1nc2scc(-c3ccco3)c2c(=O)n1-c1ccccc1	7	156	91	i
26	CCOC(=O)C(C(C)=O)C(c1ccc(OCCC(C)C)cc1)C(C(C)=O)C(=O)OCC (stereo not given)	53	131	105	i
27	O=C(NCc1ccc2c(c1)OCO2)c1cc(-c2ccccc2Cl)on1	-6	101	109	i
28	CCC(C)c1ccc(NC(=O)c2cccs2)cc1 (stereo not given)	-10	162	-328	i
29	COc1ccccc1P(=O)(c1ccccc1)c1ccccc1NC(C)=O (stereo not given)	.	.	103	i
30	C=CCn1c(SC)nnc1C1COc2ccccc2O1 (stereo not given)	28	188	100	i
31	O=C(NC1CCN(C(=S)NCc2ccco2)CC1)c1cccc(F)c1	0	201	111	i
32	Cn1nnnc1SCC(=O)NCCCc1ccccc1	18	95	95	i

No.	HSV replic up primary fold	PKD1 kinase inh	GALR2 agonist
25	0.88	5	-3.5
26	0.84	2	0.8
27	0.89	-3	-1.6
28	0.85	-2	-2.2
29	1.1	.	.
30	1.1	2	.
31	0.92	-5	.
32	0.63	3	12*

# More compounds.
No.	SMILES	Insulin prom inh	Insulin prom inh cell count	RGS16-Gao HTS	HSV replic up
33	COCCNC(=O)c1cc2c(=O)n(C)c3ccccc3c2n1C	.	.	103	i
34	COc1ccc(Cl)cc1C(=O)NCCN(C)C	-464	117	101	i
35	CCCN(C(=O)CSc1nnc(-c2ccoc2C)n1N)C1CCS(=O)(=O)C1 (stereo not given)	.	.	104	i
36	NS(=O)(=O)c1ccc(CCNc2nc(CN3CCOCC3)nc3sc4c(c23)CCC4)cc1	.	.	.	i
37	CC(=O)c1cccc(CN2CCCC(CCC(=O)NCc3ccccc3F)C2)c1 (stereo not given)	.	.	96	i
38	CN1CCN(C(=O)C2=C[C@H](c3coc4ccccc4c3=O)C[C@H](OCCCCO)O2)CC1	.	.	88	i
39	Cn1cc(C(=O)Nc2ccc(F)c(Cl)c2)cn1	17	92	108	i
40	Nc1nc(Nc2ccc(Cl)cc2Cl)nc(C(F)(F)F)n1	17	96	167	i

No.	HSV replic up primary fold	PKD1 kinase inh	GALR2 agonist
33	1.1	-3	-1.4
34	0.9	-5	-1.5
35	1	-6	-2.3
36	0.96	5	-1.8
37	0.98	-11	.
38	1	0	.
39	0.98	7	0.9
40	0.96	-6	-1.4

# Further entries
No.	SMILES	Insulin prom inh	Insulin prom inh cell count	RGS16-Gao HTS	HSV replic up
41	CCCCOc1ncnc2c1[nH]c1ccc(C)cc12	.	.	106	?
42	CCCN(C(=O)c1cn(CC)c2nc(C)ccc2c1=O)c1c(N)n(Cc2ccccc2)c(=O)[nH]c1=O	-106	36	106	i
43	COc1ccc(-c2c(C)nn(-c3ccccc3)c2N)cc1OC	-124	94	100	i
44	COCCNC(=O)C(c1ccc(C)o1)N(C(=O)c1snc(C(N)=O)c1N)c1cccc(C)c1 (stereo not given)	-58	128	103	.
45	c1csc(Cn2nnnc2CN2CCN(c3nc4ccccc4s3)CC2)c1	.	.	100	i
46	Cc1onc(-c2ccccc2)c1C(=O)N1CCCSC1=Nc1ccccc1	-166	82	102	i
47	NC(=O)c1sc2nc3c(c(-c4ccco4)c2c1N)CCCC3	.	.	94	i
48	C=CCn1c(CSc2nc3ccccc3s2)nnc1SCC(=O)NCCN1CCOCC1	-122	99	102	i

No.	HSV replic up primary fold	PKD1 kinase inh	GALR2 agonist
41	.	.	.
42	1.1	1	.
43	0.78	-7	-1.2
44	.	3	-0.6
45	0.97	6	-2.3
46	0.96	-3	-2.2
47	1.1	.	.
48	0.88	-6	-2.1

# Remaining list, next part:
No.	SMILES	Insulin prom inh	Insulin prom inh cell count	RGS16-Gao HTS	HSV replic up
49	Cn1c(=O)c2c(-c3cccc(F)c3)c3c(nc2n(C)c1=O)-c1ccccc1C3O (stereo not given)	27	76	106	i
50	CN(Cc1ccccc1)c1ncnc2ccc(Br)cc12	3	106	97	i
51	CN(C(=O)CSC1=NCCS1)c1ccccc1	11	107	102	i
52	CC(=O)NCc1ccc(-c2csc(N)n2)s1	.	.	101	i
53	NC1=C([N+](=O)[O-])C(c2ccccc2)C2=C(CCCC2=O)O1 (stereo not given)	-21	130	92	i
54	CCOC(=O)c1nn(-c2ccc(F)cc2)c(C)c1C(C)=O	28	61	97	i
55	Cc1c(C(=O)O)cnc2c([N+](=O)[O-])cnn12	56	95	104	i
56	Cc1cc(C)cc(N=c2c([N+](=O)[O-])nn(-c3ccc(Cl)cc3)n2O)c1	36	78	96	i

No.	HSV replic up primary fold	PKD1 kinase inh	GALR2 agonist
49	0.99	-5	-0.9
50	0.88	-2	-1.4
51	1.1	2	-0.9
52	0.89	-15	-2.6
53	0.94	-8	-1.0
54	0.97	2	-3.2
55	0.96	-11	.
56	0.95	-2	.

# Next section.
No.	SMILES	Insulin prom inh	Insulin prom inh cell count	RGS16-Gao HTS	HSV replic up
57	O=C(CCN1CCN(c2ccc(F)cc2)CC1)Nc1ccccc1F	i	65	110	i
58	Cc1ccc(-c2nc(SCC(=O)N(C)C3CCS(=O)(=O)C3)[nH]c2-c2ccc(C)cc2)cc1 (stereo not given)	-11	91	100	i
59	Nc1c(C(=O)OCC2CCCO2)c2nc3ccccc3nc2n1-c1ccc2c(c1)OCCO2 (stereo not given)	0	107	113	i
60	O=C1CC(N2CCN(c3ccc(F)cc3)CC2)C(=O)N1Cc1ccc(N2CCCC2=O)cc1 (stereo not given)	-73	102	102	i
61	C=CCc1ccccc1OCC(O)CNC(=O)c1ccccc1C(=O)O (stereo not given)	.	.	100	i
62	COC(=O)[C@H]1CCCN1C(=O)Nc1cccc(Oc2c(F)c(F)c(F)c(F)c2F)c1	.	.	102	.
63	CCON1C(=O)C(C)(C)N(OCC)C(=O)C1(C)C	.	.	98	i
64	CC(NC(=O)CSc1nc(=O)cc(N)n1CCc1ccccc1)c1ccccc1 (stereo not given)	-5	45	96	i

No.	HSV replic up primary fold	PKD1 kinase inh	GALR2 agonist
57	0.9	4	-0.5
58	0.78	-5	-2.8
59	0.98	8	1.1
60	0.97	-6	-2.8
61	0.9	.	.
62	.	2	14*
63	1.1	.	.
64	0.88	-3	0.8

# Carrying on.
No.	SMILES	Insulin prom inh	Insulin prom inh cell count	RGS16-Gao HTS	HSV replic up
65	O=C(COc1ccccc1F)c1ccc(O)cc1O	.	.	98	i
66	Cc1ccc2c(c1)Oc1ccccc1C=C2C(=O)O	.	.	69	i
67	Cc1c(C)n(CCC#N)c2ccccc12	46	79	113	i
68	Cc1ccc(CNC(=O)COC(=O)c2cc3c(s2)CCC(C)C3)cc1 (stereo not given)	.	.	161	i
69	CCN(CC)C(=O)C(=O)Nc1ccc(OCc2ccccc2)cc1	29	113	104	i
70	O=C(CSc1nc(-c2ccccc2)cs1)Nc1cccc([N+](=O)[O-])c1	.	.	181	i
71	COCCCNC(=O)/C(C#N)=C1\N=C(NC(=O)c2cccs2)c2ccccc21	.	.	99	i
72	CN1CCN(C(c2ccccn2)c2cc(Cl)c3cccnc3c2O)CC1 (stereo not given)	.	.	98	i

No.	HSV replic up primary fold	PKD1 kinase inh	GALR2 agonist
65	1.1	9	-2.0
66	1	-2	.
67	0.99	9	-2.2
68	0.94	3	-1.1
69	0.94	7	.
70	1.1	6	-2.0
71	1.1	.	.
72	0.75	0	.

# Profiles from above.
# CN1CCN(C(c2ccccn2)c2cc(Cl)c3cccnc3c2O)CC1 (stereo not given) is entered as Insulin prom inh = .; Insulin prom inh cell count = .; RGS16-Gao HTS = 98; HSV replic up = i; HSV replic up primary fold = 0.75; PKD1 kinase inh = 0; GALR2 agonist = .
# Cc1c(C)n(CCC#N)c2ccccc12 is entered as Insulin prom inh = 46; Insulin prom inh cell count = 79; RGS16-Gao HTS = 113; HSV replic up = i; HSV replic up primary fold = 0.99; PKD1 kinase inh = 9; GALR2 agonist = -2.2

# Remaining list, next part:
No.	SMILES	Insulin prom inh	Insulin prom inh cell count	RGS16-Gao HTS	HSV replic up
73	Brc1ccc(C2=NC(Cc3ccccc3)CO2)cc1 (stereo not given)	30	108	107	i
74	CCOC(=O)C(NCc1ccco1)(NC(=O)c1ccc(OC)cc1)C(F)(F)F (stereo not given)	-24	95	99	i
75	Cn1c(Cc2ccccc2)nnc1SCCC(=O)Nc1ccccc1	-44	58	96	i
76	O=C(CSc1nnc(CCCN2C(=O)c3cccc4cccc(c34)C2=O)n1-c1ccccc1)NCCCO	-18	56	101	i
77	c1ccc(-n2c(-c3ccncc3)nnc2N2CCOCC2)cc1	.	.	103	i
78	OCCNCc1cccc2ccccc12	.	.	96	i
79	O=C(CSc1nnc(-c2c[nH]c3ccccc23)n1CC1CCCO1)Nc1ccc2c(c1)OCCO2 (stereo not given)	23	90	101	i

No.	HSV replic up primary fold	PKD1 kinase inh	GALR2 agonist
73	0.99	-5	-1.1
74	0.96	-9	-1.1
75	1.1	-2	-2.3
76	0.94	-7	-0.5
77	0.96	-4	-0.9
78	1	-4	.
79	0.94	5	-1.8
